Mtb hypoxia rep – inhibitors of hypoxia-regulated fluorescent reporter in Mycobacterium tuberculosis | M. tuberculosis hypoxia-regulated fluorescent reporter, fluorescence | fluorescence inhibition, % (test concentration not listed) | actives 0.1% (n = 300,000);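 active means 35 to 45% if threefold the growth effect, above 45% if 1.5-fold the growth effect; inactive means the rest, general growth blockers included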;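 further: wells of about 50 µL received 100 nL stock; 0% = vehicle wells and 100% = reference inhibitor wells; whole bacteria with a GFP reporter of the hypoxia response; strong numbers were not always called active; many hits fall short of the cut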
Bead autofluor – counter-screen for toxin protease inhibitors: compound fluorescence. compound autofluorescence counterscreen, microsphere flow cytometry; active compounds read high. fluorescence intensity (test concentration not listed). actives 3.1% (n = 360,000). AID 624483;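 active means at least 3 SD above the mean of all compounds, about 16000 in these data; inconclusive means too few beads counted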;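 further: 100 nL of 1 mM stock went into each well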
Sa RN4220 lethal – S. aureus RN4220 growth inhibition. OD600, 16 h. inhibition, % (no concentration beside the values). actives 0.33% (n = 330,000). AID 1259311;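 active means z-score of -3 or lower and OD600 up to 0.18 on both plates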;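 further: plate controls were untreated cells for no effect and reference antibiotic for full effect; stock transfer was 100 nL into about 80 µL; one replicate is shown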
BJeLR viability – kills HRASV12-expressing BJeLR cells. inhibition, % (no concentration beside the values). BJeLR (HRASV12) viability, CellTiter-Glo ATP luminescence, 48 h; reference of the scale not given here. actives 0.17% (n = 300,000);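 active means replicate mean above 50%; inconclusive means above 50% but judged a plate artefact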;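 further: 50 nL library stock added to about 25 µL; numbers are from one replicate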
PrP UTR inh – inhibition of PrP 5' UTR reporter expression | actives 0.35% (n = 340,000) | inhibition, % (no concentration beside the values) | AID 488862 | cell-based PrP 5' UTR mRNA reporter, plate reader;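 active means every replicate at 50% or more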;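 further: 0 = median of the neutral control wells; tested in H4 reporter cells; numbers are from one replicate; inactives centre near -14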
ugtP null kill – kills S. aureus RN4220 lacking UgtP | actives 0.54% (n = 330,000) | S. aureus RN4220 ugtP deletion, OD600 growth, 16 h; some inactives read as strong as hits | growth inhibition, % (concentration not given with the values);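 active means z-score under -3 and OD600 up to 0.15 on both plates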;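 further: plate controls were untreated wells for no effect and antibiotic for full effect; wells of about 80 µL received 100 nL stock; the first replicate is given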
Mtb hypoxia rep growth – also measured in Mtb hypoxia rep; calls as there; growth inhibition, %; measured here: M. tuberculosis growth (absorbance);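 0% = vehicle and 100% = reference antibiotic; read after six days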
The depositor's hits bear a star; ? = inconclusive; . = no result given.

The line under a structure holds: Mtb hypoxia rep | Mtb hypoxia rep growth | Bead autofluor | Sa RN4220 lethal | BJeLR viability | PrP UTR inh | ugtP null kill
> Clc1ccc(-c2n[nH]c3c2CCC3)c(Cl)c1
 : -14 | 4 | 4619 | 23 | -3 | -1 | 4
> COc1ccc(NC(=O)c2ccc3c(c2)NC(=O)CS3)cc1
 : 9 | 14 | 5718 | 1.6 | . | -15 | 3
> O=C(N/N=C\c1cc2c(cc1Cl)OCO2)c1cccs1
 : . | . | 5327 | . | -6 | -56 | .
> C=CCn1c(Br)nc2c1c(=O)n(C)c(=O)n2C
 : 3 | 5 | 11634 | 6.9 | 4 | -17 | -1
> O=C1c2cccc3c(N4CCCCC4)ccc(c23)C(=O)N1c1cccc(O)c1
 : 5 | 0 | 5354 | -0.3 | 0 | -48 | -3
> Cc1ccc(S(=O)(=O)Nc2ccc(-c3ccc4nncn4n3)cc2)cc1
 : 5 | -4 | ? | 5.2 | 1 | -7 | 0
> CCOc1ccc(NC(=O)Cc2c(O)c3ccccc3[nH]c2=O)cc1
 : . | . | 2424 | 4.6 | -3 | -9 | 12
> COc1cccc(C=NNC(=O)CNC(=O)C(c2ccccc2)c2ccccc2)c1O
 : -7 | 3 | . | 11 | . | . | -2
> CCN(CC)CC(O)c1ccc2ccc3ccc(O)cc3c2c1 (stereo unspecified)
 : -1 | 9 | 3588 | 0.0 | . | -5 | -4
> CN1CCN(NC(=O)NC2CCCCC2)CC1
 : 1 | 2 | 5728 | 1.3 | 2 | -18 | 6
> CSc1ccc(/C=C/C(=O)OCC(=O)N(C)CCC#N)cc1
 : 7 | 15 | 3295 | -0.5 | 10 | -21 | 5
> CCOc1ccccc1N1CCN(S(=O)(=O)c2cccs2)CC1
 : 3 | 11 | 7955 | 6.3 | 1 | -9 | 15
> COc1cc(C=NNc2ccc(S(N)(=O)=O)cc2)cc(OC)c1OC
 : 2 | 12 | . | 3.8 | . | . | 11
> CCOC(=O)CN(C(=O)CN1CCOCC1)c1ccc(Br)cc1
 : 7 | 6 | 16493* | 3.2 | -2 | -24 | 9
> CC(C)c1c(C#N)c(N)nc(SCC(=O)c2cc3ccccc3oc2=O)c1C#N
 : -8 | -10 | 4048 | -7.1 | 2 | -2 | -22
> O=C(O)c1cccc(NN=Cc2ccc(-c3ccccc3)cc2)c1
 : 4 | 2 | . | -8.0 | . | . | 0
> C=CCNC(=O)Cn1c(=O)c2c(ncn2CCC(C)C)n(Cc2ccccc2)c1=O
 : -7 | -7 | 6042 | -4.8 | 2 | -28 | -2
> COCCn1c(C)cc(C(=O)CSc2cc(C)c3ccccc3n2)c1C
 : 3 | 2 | 7508 | -4.6 | 3 | -29 | -16
> COc1ccccc1NC(=O)c1ccc(NC(=O)CSc2nnnn2C)cc1
 : . | . | 3912 | -2.5 | -6 | -16 | 0
> CCOc1ccc(N2C(=O)CC(N3CC(C)OC(C)C3)C2=O)cc1 (stereo unspecified)
 : 7 | -1 | 6906 | 2.4 | -1 | -19 | 15
> O=C(OCCOc1ccccc1)c1cccc(S(=O)(=O)N2CCOCC2)c1
 : -12 | 7 | 5781 | -1.2 | . | 1 | -2
> COc1cc(N2CN=c3s/c(=C\c4ccccn4)c(=O)n3C2)cc(OC)c1OC
 : . | . | 3011 | . | 6 | -14 | .
> CN(C)c1ccc(/C=C/[N+](=O)[O-])cc1
 : . | . | 5524 | 5.9 | 32 | -13 | 7
> CCOC(=O)c1c(C)oc(NC(=O)COc2ccc(Cl)cc2C)c1C#N
 : 11 | 14 | 9643 | 9.5 | 4 | -15 | -20
> CCOC(=O)c1ccc(-n2ccnc2)c(NC(=O)c2ccc(C(C)(C)C)cc2)c1
 : -3 | 2 | 2358 | -11 | -11 | -10 | 10
> O=C(O)[C@H](Cc1ccccc1)N1C(=O)c2c(Cl)c(Cl)c(Cl)c(Cl)c2C1=O
 : . | . | 2997 | . | 11 | -8 | .
> COc1ccc(N2C(=O)CC(Sc3ccccc3C(=O)O)C2=O)c([N+](=O)[O-])c1 (stereo unspecified)
 : 9 | 2 | 4133 | 7.5 | 7 | -50 | 2
> COc1cccc(-c2ccc3ncnc(NCc4ccc5c(c4)OCO5)c3c2)c1
 : 4 | 8 | 3238 | -27 | . | 0 | -3
> COc1cccc(NC(=O)CN(C)C(=O)c2ccccc2OCc2c(C)noc2C)c1
 : 2 | 2 | 5037 | 2.6 | 0 | -16 | 7
> Cn1c(=O)c2sccc2n2c(CCCC(=O)NC3CCN(Cc4ccccc4)CC3)nnc12
 : 4 | 10 | 5741 | 1.8 | 6 | -12 | 6
> COCc1nc(-c2cc(OC)c(OC)c(OC)c2)no1
 : 7 | 9 | 8974 | 6.1 | 2 | -16 | 0
> CCCOc1ccc(Cn2cnc3ccccc32)cc1
 : 8 | 5 | 16239* | 9.0 | . | -3 | 17
> c1ccc(CCc2ccccn2)cc1
 : 4 | 2 | 3034 | 5.4 | . | -32 | 8
> Cc1snc(SCC(=O)N/N=C(\N)COc2ccc(F)cc2)c1C#N
 : . | . | 4299 | . | -1 | 3 | .
> Cc1c(CCO)c(=O)oc2n[nH]c(-c3ccccc3)c12
 : -1 | 0 | 4222 | 1.4 | 3 | -12 | 6
> N#CC1=C(N)C(C#N)(C#N)C2(CCC3(CC2)OCCO3)C2CC3(CC=C12)OCCO3 (stereo unspecified)
 : -4 | -5 | 8299 | 0.1 | 0 | -8 | 0
> Cc1ccc(CN2C(=O)CSc3ccc(C(=O)NC4CC4)cc32)cc1
 : -3 | -2 | 5708 | 2.4 | -1 | 0 | 5
> CCCC(=O)c1cc(F)c(N2CCN(S(=O)(=O)c3ccccc3)CC2)cc1C
 : -1 | 4 | 10428 | 0.6 | -1 | 1 | 75
> O=C(O)C1CCCCC1C(=O)NCCC(c1ccccc1)c1ccccc1 (stereo unspecified)
 : 16 | 17 | 10310 | -1.8 | -11 | -23 | 6
> CCN(CC)S(=O)(=O)c1ccc(/C=C/C(=O)OCC(=O)NNC(=O)c2ccc(OC)cc2)cc1
 : 10 | 6 | 8080 | 5.3 | . | -24 | 1
> Cc1cc2c(cc1C)CSC(c1c(O)ccc3ccccc13)SC2
 : 5 | 9 | ? | 72 | 8 | -21 | 28
> Cc1ccc(-c2nc3ccccc3s2)cc1S(=O)(=O)N1CCOCC1
 : -5 | 5 | 11672 | 0.0 | 1 | -23 | -1
> Cc1cc(/C=C(\C#N)C(=O)NCc2ccccc2)cc(C)c1O
 : 7 | 6 | 5219 | 3.9 | -12 | -28 | 1
> O=C(O)CCCCCn1c(SCc2cc(=O)n3ccccc3n2)nc2ccsc2c1=O
 : -4 | 2 | 2014 | 2.0 | -15 | -11 | 10
> CCC(=O)Nc1ccccc1C(=O)OC(c1ccccc1)c1ccccc1
 : -4 | 7 | 2598 | -3.9 | 1 | -8 | 40

3 entries from above, with tabs:
SMILES	Mtb hypoxia rep	Mtb hypoxia rep growth	Bead autofluor	Sa RN4220 lethal	BJeLR viability	PrP UTR inh	ugtP null kill
CCOc1ccc(NC(=O)Cc2c(O)c3ccccc3[nH]c2=O)cc1	.	.	2424	4.6	-3	-9	12
COc1cccc(C=NNC(=O)CNC(=O)C(c2ccccc2)c2ccccc2)c1O	-7	3	.	11	.	.	-2
CCN(CC)CC(O)c1ccc2ccc3ccc(O)cc3c2c1 (stereo unspecified)	-1	9	3588	0.0	.	-5	-4

(list continues)
The line under a structure holds: Mtb hypoxia rep | Mtb hypoxia rep growth | Bead autofluor | Sa RN4220 lethal | BJeLR viability | PrP UTR inh | ugtP null kill
> O=S1(=O)CCC(=NNc2ccc(F)cc2)c2ccsc21
 : 12 | 8 | . | 16 | . | . | 2
> N#Cc1ccc(NC(=O)CN2CCCCCC2)cc1Cl
 : 0 | 2 | 4940 | -9.1 | -2 | -4 | -3
> CCc1cccc(NC(=O)Nc2ccc3c(c2)OCO3)c1
 : 11 | 11 | 2085 | 3.2 | 11 | -2 | -9
> COc1ccc(-c2ccnc(SCC(=O)c3ccc(OC)c(OC)c3)n2)cc1
 : -5 | -3 | 2048 | -2.9 | -11 | -27 | 3
> COCCNS(=O)(=O)c1cc(F)ccc1OC
 : . | . | 4866 | 1.8 | -5 | -25 | 2
> O=C(COc1ncnc2ccccc12)NCCc1ccc(F)cc1
 : -6 | 4 | 3796 | 5.6 | -3 | -20 | -1
> CN1CCN(C(=O)c2ccc(COc3cc(Cl)ccc3Cl)o2)CC1
 : -7 | -5 | 3270 | -1.6 | -3 | -6 | -1
> O=C(CN(Cc1ccc(Br)cc1)S(=O)(=O)c1ccccc1)NCc1ccccn1
 : 9 | -22 | 5995 | 1.9 | 6 | -22 | -2
> COc1ccc(-c2c(C)nn3c(N4CCC5(CC4)OCCO5)cc(C)nc23)cc1OC
 : 8 | 33 | 4130 | 4.0 | -14 | -4 | -8
> COc1cccc(C=NNC(=O)NC2CCCCC2)c1O
 : 5 | 1 | . | 2.2 | . | . | 5
> COC(=O)C1=C(C)Nc2[nH]c(=S)[nH]c(=O)c2C1c1ccc(OC)cc1 (stereo unspecified)
 : 10 | 10 | 2552 | 1.0 | -17 | -18 | 2
> COc1cc(OC)cc(-n2nnnc2SCC(=O)NCCc2ccc(OC)c(OC)c2)c1
 : -6 | 11 | 4658 | 2.7 | 9 | -21 | -3
> Cc1ccc(C(=O)c2ccc(C)cc2)cc1
 : 5 | 3 | 3154 | 11 | 5 | 4 | 10
> C=C(C)C1CC=C(C)/C(=N/NC(=O)COc2cccc3ccccc23)C1 (stereo unspecified)
 : . | . | 5864 | . | -13 | -37 | .
> CN(c1ccc(S(=O)(=O)N2CCOCC2)cn1)C1CCCCC1
 : . | . | 2118 | -1.6 | -1 | -9 | 14
> CCOc1ccccc1C1C(C(N)=O)=C(C)Nc2nc(-c3ccc(OC)cc3)nn21 (stereo unspecified)
 : -5 | 8 | ? | -3.0 | 4 | -20 | -5
> Cc1ccc(CN2CCN(/N=C/c3ccc(C(=O)O)cc3)CC2)cc1
 : . | . | 2498 | . | -2 | -26 | .
> CCOC(=O)c1cc(-c2csc(-c3ccc(C(C)(C)C)cc3)n2)on1
 : . | . | 3947 | -4.2 | -8 | -7 | -15
> COc1ccc(-c2cn(-c3ccc(C)cc3C)c(=O)[nH]2)cc1OC
 : 3 | 11 | 5840 | -1.1 | 7 | -3 | 2
> COC(=O)c1ccccc1NC(=O)CSc1nc2c(c(=O)[nH]1)CCC2
 : 3 | -2 | 7538 | 6.2 | 4 | -8 | -1
> C=CCn1cnc2c(c1=O)c1nc3ccccc3nc1n2N=Cc1cc(OC)c(OC)c(OC)c1
 : -5 | 7 | . | -0.2 | . | . | -19
> O=C(O)CCCC(=O)N1CCOCCOCCOCCOCC1
 : 5 | 1 | 3780 | 0.2 | -4 | -36 | 8
> O=C(O)c1ccc(C(=O)Nc2cccc(NC(=O)C3CCCO3)c2)cc1 (stereo unspecified)
 : 5 | -1 | 10294 | 1.5 | 3 | . | 4
> O=C(COc1ccc2ccccc2c1)NC1=NCCS1
 : . | . | 3342 | 2.1 | 1 | -22 | 5
> COc1ccc(OC)c(S(=O)(=O)N2CCCC(C(=O)NCc3ccccn3)C2)c1 (stereo unspecified)
 : -1 | -4 | 3655 | 4.9 | -9 | -9 | 8
> CCC(c1nc2ccccc2c(=O)n1-c1nc2ccccc2s1)N1C(=O)c2ccccc2C1=O (stereo unspecified)
 : 9 | 10 | 2097 | 3.3 | 3 | -22 | 3
> N#CC1=C2SCN(Cc3ccco3)CN2C(=O)CC1c1ccc(Cl)cc1 (stereo unspecified)
 : -1 | 6 | 22500* | -1.1 | -5 | -12 | -4
> Cc1ccc(/C=C/C(=O)c2nc3ccccc3[nH]2)cc1
 : 9 | 14 | 8105 | 5.5 | 7 | -16 | -6
> Cc1ccc(OCCCC(=O)Nc2nnc(C3CCCO3)s2)c(C)c1 (stereo unspecified)
 : 3 | -3 | 3492 | -1.1 | 5 | -12 | 5
> CCn1c(SCC(=O)Nc2nnc(C)s2)nnc1-c1ccncc1
 : 4 | 0 | 14273 | 1.9 | -2 | -7 | 1
> Cc1cccc(NC(=O)CC(=O)Nc2cccc(C)c2)c1
 : -4 | 3 | 3778 | 2.3 | -2 | 2 | 2
> Cc1ccc(S(=O)(=O)N2CCN(S(C)(=O)=O)C2)cc1
 : -5 | -4 | 7383 | -1.1 | 4 | -8 | -1
> CCN(CC(=O)Nc1cc(S(=O)(=O)N2CCCCC2)ccc1C)Cc1ccccc1
 : -7 | 1 | ? | 1.7 | -9 | -21 | -1

Screening data (PubChem)
